Compound activity: PubChem BioAssay, National Center for Advancing Translational Sciences (NCATS)
HSD17B inh: blocks hydroxysteroid 17-beta dehydrogenase activity | recombinant HSD17B10, NADH fluorescence kinetic; many of its hits are not listed in these tables | Potency, µM (doses to about 57.1 µM), inactives show top-dose activity change, negative = inhibition, most hits filed as inhibitors | AID 893 | Q99714 | 75,000 tested, 7.6% active; active means well fitted inhibition curve with a large enough effect; inconclusive means small, poorly fitted or top-dose-only effect; inactive means no such curve, though single readings can be large or run the other way;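 further: the protocol describes HADH2 (HSD17B10) and not the HSD17B4 of the title; nearly all actives have a fitted effect of over 70% in size; most hits overshoot -100% by far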
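Enzyme plus compound, 15 min room temperature; substrate mix added (NAD+ 1 mM, beta-hydroxybutyryl-CoA 90 uM final); plates read kinetically for NADH fluorescence. HADH2 was His-tagged, E. coli-derived, 20 nM.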
Active calls of the source: *; u = inconclusive; [ ] = another dose, or the depositor's remark. On the % scale 0 is the no-effect control and ±100 the full control effect; potency means the concentration at half of the fitted maximal effect. This is a subset; the hit share may differ from the screen's.

smiles | HSD17B inh
O=C(NCCc1ccccc1)C1CCN(S(=O)(=O)N2CCCC2)CC1 | -4.7%
CC(C)CCN1CC(C(=O)N2CCN(c3ccc(F)cc3)CC2)CC1=O (stereo unspecified) | 4.9%
Cc1cc(C)c(C#N)c(SCC(=O)CC(=O)OC(C)C)n1 | 31.6µM*
O=C(c1ccncc1)N1CCC[C@@]2(CCN(Cc3cc(C(F)(F)F)cc(C(F)(F)F)c3)C2)C1 | 2.9%
Cc1nc2sc3c(c2c(=O)n1/N=C/c1ccco1)CCCC3 | 1.3%
CN=C(Nc1cc(C)nn1CCC#N)c1ccccc1 | 4.9%
Cc1ccc(OCC(=O)Nc2ccc(N3CCOCC3)cc2)cc1 | -4.5%
CC(C)(C)c1nc(SCC(=O)NCc2ccco2)c2ccccc2n1 | -5.1%
O=C1CCCN1c1ccc(S(=O)(=O)N2CCC(c3ccccc3)CC2)cc1 | 4.8%
COc1ccccc1-c1c(C)nn2c(NCCN3CCCC3)cc(C)nc12 | 6.1%
Cc1ccc(-c2noc(CCC(=O)NCCN3CCOCC3)n2)cc1 | 2.0%
CC(=O)Nc1cc(N2C(=O)CCC2=O)ccc1Cl | 3.6%
COc1ccc2nc(NC(=O)CSc3nc4ccccc4o3)sc2c1 | 6.7%
CCOC(=O)c1ccc(Oc2nc(NC)nc(SC)n2)cc1 | 7.0%
CC(C)N1C(=O)CCC1C(=O)NCCc1ccc(Cl)cc1 (stereo unspecified) | 0.8%
CCCCOc1ccc(S(=O)(=O)n2c(C)nc3ccccc32)cc1 | -8.0%
O=C1c2sc3nc4ccccc4n3c2C(=O)N1c1ccccc1Cl | -22.5%
Cc1ccc(OCC(=O)NCc2ccccn2)cc1 | 7.6%
COc1cccc(OC)c1OCCCc1c(C)n[nH]c1C | -11.7%
CCC(C)NC(=O)CN(c1cc(C)ccc1OC)S(C)(=O)=O (stereo unspecified) | 0.1%
CCCC[C@@H]1C[C@H]1C(NC(=O)c1cccs1)c1ccc(-c2ccccc2)cc1 (stereo partly specified) | 9.5%
COC(=O)C1C(c2ccccc2)C(C(=O)N2CCOCC2)C1c1ccccc1 (stereo unspecified) | 2.3%
Cc1ccc(CN2C(=O)C(C)(C)Oc3ccc(C(=O)N4CCCCC4)cc32)cc1 | -7.9%
CCN(CC)S(=O)(=O)c1cc(C(=O)OC)ccc1Cl | 7.0%
Cc1noc(C)c1S(=O)(=O)N1CCC(C(=O)N2CCC(C)CC2)CC1 | 6.6%
CCCCCSc1nnc(C)c(=O)[nH]1 | -4.3%
CCCn1c(=O)c(-c2ccccc2)c(O)c2ccccc21 | 0.1%
FC(F)(F)c1ccc(Sc2nnc(-c3cccs3)n2CC2CCCO2)nc1 (stereo unspecified) | 3.1%
CN(CC(=O)O)CC(=O)O | 17.0%[11.4 µM]
COc1ccccc1NC(NC(=O)c1ccco1)C(=O)c1ccccc1 (stereo unspecified) | 0.8%
Cc1ccc(-c2noc(CCC(=O)Nc3cccc(C#N)c3)n2)cc1 | 3.2%
CC(=O)N[C@@H]1CONC1=O | 1.0%[11.4 µM]
CC(=O)O[C@]12CC[N@+]3(C)CCCC[C@@H]3[C-]1Nc1ccccc12 | 6.0%[11.4 µM]
Clc1ccc(CSc2nnc(Cn3cnc4ccccc43)o2)cc1 | -4.5%
CC(C)CC(=O)N1CCN(Cc2cccc(F)c2)CC1 | -2.2%
CC(=O)NCCOc1ccc2oc3ccccc3c2c1 | -4.8%
COc1ccc(NC2c3ncccc3C(=O)N2Cc2ccccc2)c(OC)c1 (stereo unspecified) | -25.5%
c1ccc(-c2nnn(CCN3CCCCC3)n2)cc1 | 10.7%[11.4 µM]
CCOc1ccccc1C(=O)N(C)Cc1cc2ccccc2[nH]c1=O | u
Cc1cc(C)c2oc(=O)cc(CN3CCOCC3)c2c1 | -10.9%
COc1cc2[nH]c3c(N4CCN(c5ccc(Cl)cc5)CC4)ncnc3c2cc1OC | 31.6µM*
Cc1cccc(C)c1NC(=O)COC(=O)c1nonc1N | 5.4%
Cc1ccc2c(C)nc(NC3=NCN(C(C)C)CN3)nc2c1 | 5.8%
Nc1ccccc1SCc1cn2ccccc2n1 | -1.7%
CCOCCCNCC(=O)Nc1ccc(OC(F)(F)F)cc1 | 2.9%
CCOC(=O)c1cccc(NC(=O)N[C@@H](C)C(=O)OC)c1 | 7.6%
COc1ccc2c(c1)c(C(=O)CN1CCC3(CC1)OCCO3)c(C)n2C | -0.5%
COC(=O)CCS(=O)(=O)c1cc(Cl)ccc1Cl | -5.2%
CCN(CC)CCc1c(C)[nH]c(C(=O)OCc2ccccc2)c1C | 10.3%
Cn1c(CCN2CCCCC2)nc2cc(NC(=O)C3CCCCC3)ccc21 | 5.5%

New compounds follow
smiles | HSD17B inh
CC1C=CCCOC1c1ccccc1 (stereo unspecified) | 0.5%[11.4 µM]
N=c1nc(N)nc(N)n1-c1ccc(S(N)(=O)=O)cc1 | 0.5%[11.4 µM]
CC(=O)Nc1ccc(OC/C=C(\C)Cl)cc1 | 3.6%
CCCS(=O)(=O)N1CCCC(C(=O)NCCN(Cc2ccccc2)C(C)C)C1 (stereo unspecified) | 0.3%
O=C(CS(=O)CC(=O)Nc1ccc(Cl)cc1)NCC1OCCc2ccccc21 (stereo unspecified) | 4.8%
Nc1ncnc2c1ncn2CCN1CCCCC1 | 3.8%
CCOC(=O)CC(=O)CSc1nc(C)cc(-c2cccnc2)c1C#N | -14.6%
Cc1cccc(C)c1OCC(=O)Nc1ncn[nH]1 | -8.0%
CCC1Oc2ccccc2N(CC(=O)NCCCN2CCOCC2)C1=O (stereo unspecified) | 5.9%
CCCC(=O)Nc1cccn(Cc2ccccc2Br)c1=O | u
Clc1cccc(CSc2nnc(-c3cccnc3)n2Cc2ccco2)c1 | -11.4%
CC1(C)Cn2c(nnc2-c2ccccc2)S1 | 2.0%
Oc1c(Cl)cc(Cl)c2c1NCCC2 | 20µM*
CCSc1nc(C)c(CC)c(C)c1C(N)=O | -2.4%
CCn1c(SCC(=O)Nc2nc3ccc(OC)cc3s2)nc2c1c(=O)n(C)c(=O)n2C | 8.1%
O=C(CSCC(=O)N1CCOCC1)Nc1ccccc1 | -3.3%
CCOC(=O)C1CCN(S(=O)(=O)c2ccc(Br)c(OCC)c2)CC1 | 8.0%
Cc1ccc(NC(=O)COC(=O)c2ccnn2C)cc1 | -2.7%
Cc1nnc(NC(=O)C2CCCCC2)s1 | 4.3%
NC12CC3CC(C1)CC(CO)(C3)O2 | -3.0%
CCCNS(=O)(=O)c1ccc(CCC(=O)Nc2ccc3c(c2)OCO3)cc1 | -3.8%
Cn1c(SCC(=O)N2CCCc3ccccc32)nnc1-c1cccs1 | -3.7%
CC1=NN(c2ccccc2)C(=O)[C@@H]1N=Nc1ccc(S(N)(=O)=O)cc1 | 5.1%[11.4 µM]
Cc1ccc2c(CC(=O)N3CCc4ccccc43)coc2c1 | -9.7%
COC(=O)C1=C(C)N=C2SCCC(=O)N2C1c1cccs1 (stereo unspecified) | 1.0%

Shown field by field: part of the list above.
> CC(C)(C)c1nc(SCC(=O)NCc2ccco2)c2ccccc2n1
  HSD17B inh = -5.1%
> O=C1CCCN1c1ccc(S(=O)(=O)N2CCC(c3ccccc3)CC2)cc1
  HSD17B inh = 4.8%
> COc1ccccc1-c1c(C)nn2c(NCCN3CCCC3)cc(C)nc12
  HSD17B inh = 6.1%
> Cc1ccc(-c2noc(CCC(=O)NCCN3CCOCC3)n2)cc1
  HSD17B inh = 2.0%

(listing goes on)
smiles | HSD17B inh
C#CCCCO/N=C1/C[C@@H](O)[C@@H](O)[C@@H]2[C@@H]3C(=O)N([C@@H](C)c4ccccc4)C(=O)[C@H]3CC[C@H]12 | -0.8%[11.4 µM]
Cc1cccc(N2CCN(C(=O)c3ccncc3)CC2C)c1 (stereo unspecified) | 10.0%
O=C(c1noc2c1CCCC2)N1CCCCC1 | 3.3%
Cc1cc(NC(=O)CSc2nc3cc4c(cc3c(=O)n2CCc2ccccc2)OCO4)no1 | 10.1%
CCCCC(=O)Nc1ccc(C(=O)N2CCN(C)CC2)cc1 | 5.3%
NCC(=O)N[C@H](CO)C(=O)O | 0.9%[11.4 µM]
O=C1C(=O)N(CCO)C(c2cccc(F)c2)/C1=C(\O)c1ccc(Cl)cc1 (stereo unspecified) | -5.9%
CCc1nc2scc(-c3ccccc3)c2c(=O)n1N | u
O=C(O)CC1SC(=O)N(Cc2ccccc2)C1=O (stereo unspecified) | 0.8%
O=C(CSc1nc2ccccc2c(=O)n1Cc1ccco1)c1ccccc1 | -18.0%
COc1ccc(O)c(-c2cc(-c3cccs3)[nH]n2)c1 | -12.6%
CCC(=O)Nc1cccc(NC(=O)c2cc3ccccc3o2)c1 | 2.7%
c1ccc(C2C3=C(Nc4ncnn42)c2ccccc2CCC3)cc1 (stereo unspecified) | 4.6%
CC(C)OCCCNc1ncnc2c1[nH]c1ccccc12 | 31.6µM*
O=C(Nc1ccccn1)C(NS(=O)(=O)c1cccc2nsnc12)c1ccccc1 (stereo unspecified) | -14.6%
CCCOc1ccccc1-c1nc(SCCC(=O)O)n[nH]1 | -8.1%
COc1ccc(CNC(=O)COC(=O)c2ccc3c(c2)OCCO3)cc1 | 5.4%
COc1ccc(CNc2nc3c(c(=O)n(Cc4ccc(Br)cc4)c(=O)n3C)n2C)cc1 | -4.7%
Cc1ccccc1N1C(=O)CC(N2CCC(C(N)=O)CC2)C1=O (stereo unspecified) | -7.6%
CCN1CCN(c2nc3c(c(=O)[nH]c(=O)n3C)n2CCCSc2ncccn2)CC1 | 6.1%
O=C(Nc1ccc(OC(=O)c2cccs2)cc1)c1ccco1 | u
CCCCSc1nnc(CCCCCNC(=O)OC(C)(C)C)o1 | 5.6%
CCn1c(C(C)NC(=O)Cc2ccccc2)nc2ccccc21 (stereo unspecified) | 0.1%
COCCNC(=O)C(c1cccc(OC)c1)N(C(=O)Cn1nnc2ccccc21)c1cccnc1 (stereo unspecified) | 2.4%
COc1ccccc1-c1nnc2sc(COc3ccc(F)cc3)nn12 | -12.1%

New compounds follow:
SMILES,HSD17B inh
Cc1cc(C)n(-c2nc3ccccc3nc2N2CCN(S(=O)(=O)c3ccc(F)c(C)c3)CC2)n1,-3.0%
O=C(Nc1cnccn1)c1cccnc1,13.5%
CCOC(=O)COc1ccc2c(c1)c(C(=O)OCC)c(C)n2CC,-9.2%
O=C(CN1C(=O)NC2(CCc3ccccc32)C1=O)Nc1cc(C(F)(F)F)ccc1N1CCOCC1 (stereo unspecified),1.5%
COc1cccc(CNS(=O)(=O)c2cn(C)cn2)c1,16.1%
NC(N)=N/N=C\c1ccc(O)c(C(=O)O)c1,u
CCCC(=O)Nc1cccc(-c2nc3ccccc3o2)c1,25.1µM*
Cc1cc(C(=O)Nc2nnc(-c3ccccc3)s2)no1,-10.5%
CC(=O)C1=C(O)C(=O)N(c2cc(C(C)(C)C)on2)C1c1ccc(C(C)C)cc1 (stereo unspecified),-1.1%
Cc1cccc(NC(=O)C2CC(O)CN2C(=O)OCc2ccccc2)c1 (stereo unspecified),5.2%
CCCSc1nc2c(c(=O)n(C)c(=O)n2C)n1Cc1ccc(C)cc1,1.5%
Cn1c(=O)oc2cc(S(=O)(=O)N3CCCC(C(=O)N4CC=C(c5ccccc5)CC4)C3)ccc21 (stereo unspecified),7.0%
CCn1c(SCC(=O)C(C)(C)C)nnc1-c1ccccn1,8.8%
Cn1cccc1Cc1nnc(SCC(=O)N2CCc3ccccc32)n1CCc1ccccc1,-10.1%
COc1ccc(-c2noc(-c3ccccc3C(=O)Nc3cccnc3)n2)cc1OC,-2.9%
CC(=O)N1CC=CC1(CC(C)C)C(=O)NCC1CC1 (stereo unspecified),13.2%
COc1ccc(S(=O)(=O)N2CCC(O)(c3ccc(Cl)cc3)CC2)cc1,11.9%
C/C(=N\O)c1ccc(N2C(=O)C3CC=C(Cl)CC3C2=O)cc1 (stereo unspecified),10.9%
O=C1Nc2ccccc2C12OCCO2,1.2%
CCc1cc(C(=O)OC)c(NC(=O)CCCC(=O)O)s1,-20.9%
C/C(N)=C(/C#N)C(=O)CN1CCCCC1,-11.1%
O=C(CCCOc1ccccc1)N1CCN(C(=O)c2ccco2)CC1,-5.1%
Cc1cccc2c1nc(-c1ccccc1)n1cnnc21,25.1µM*
OCC1OC(n2nc3ccccc3n2)C(O)C(O)C1O (stereo unspecified),14.7%
Cc1cc(-n2c(C)cc(C(=O)COc3ccc4ccc(=O)oc4c3)c2C)no1,u
COc1ccc(-n2nnc3c(SCC(=O)c4ccccc4)ncnc32)cc1,u
O=c1nc(N2CCCC2)nc(Nc2ccccc2)[nH]1,7.0%
Cc1noc(C)c1S(=O)(=O)N1CCC(C(=O)NC2CCCc3ccccc32)CC1 (stereo unspecified),-4.9%
N#Cc1c(-c2ccccc2)nc(SCc2nc(N)nc(N3CCCCC3)n2)[nH]c1=O,3.9%
CCCS(=O)(=O)N1CCN(C(=O)c2cccnc2)CC1,-0.4%
Cc1cnc(CNc2ncnc3ccc(-c4cccc(NS(C)(=O)=O)c4)cc23)cn1,8.5%

An excerpt of these results, field by field:
> C/C(=N\O)c1ccc(N2C(=O)C3CC=C(Cl)CC3C2=O)cc1 (stereo unspecified)
  HSD17B inh: 10.9%
> O=C1Nc2ccccc2C12OCCO2
  HSD17B inh: 1.2%
> CCc1cc(C(=O)OC)c(NC(=O)CCCC(=O)O)s1
  HSD17B inh: -20.9%
> C/C(N)=C(/C#N)C(=O)CN1CCCCC1
  HSD17B inh: -11.1%
